KCNQ2 enhance: KCNQ2 (rat) channel potentiation; B-score at 10 µM; AID 2239; CHO-K1 KCNQ2, FluxOR thallium flux fluorescence; hits give high values; O88943; 310,000 tested, 0.54% active;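 active = fluorescence ratio B-score at least 3 SD of library B-scores, with initial fluorescence B-score within 3 SD, cut at about 5.3 in these data; same plate scores as AID 2156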;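 also: B-score of peak minus minimum over baseline fluorescence ratio after K+ and Tl+ stimulus; positive B-score means potentiation of KCNQ2 with more thallium influx and brighter signal; only the inactives scoring about 0 or higher are listed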
Target sequence (O88943 whole entry, looked up): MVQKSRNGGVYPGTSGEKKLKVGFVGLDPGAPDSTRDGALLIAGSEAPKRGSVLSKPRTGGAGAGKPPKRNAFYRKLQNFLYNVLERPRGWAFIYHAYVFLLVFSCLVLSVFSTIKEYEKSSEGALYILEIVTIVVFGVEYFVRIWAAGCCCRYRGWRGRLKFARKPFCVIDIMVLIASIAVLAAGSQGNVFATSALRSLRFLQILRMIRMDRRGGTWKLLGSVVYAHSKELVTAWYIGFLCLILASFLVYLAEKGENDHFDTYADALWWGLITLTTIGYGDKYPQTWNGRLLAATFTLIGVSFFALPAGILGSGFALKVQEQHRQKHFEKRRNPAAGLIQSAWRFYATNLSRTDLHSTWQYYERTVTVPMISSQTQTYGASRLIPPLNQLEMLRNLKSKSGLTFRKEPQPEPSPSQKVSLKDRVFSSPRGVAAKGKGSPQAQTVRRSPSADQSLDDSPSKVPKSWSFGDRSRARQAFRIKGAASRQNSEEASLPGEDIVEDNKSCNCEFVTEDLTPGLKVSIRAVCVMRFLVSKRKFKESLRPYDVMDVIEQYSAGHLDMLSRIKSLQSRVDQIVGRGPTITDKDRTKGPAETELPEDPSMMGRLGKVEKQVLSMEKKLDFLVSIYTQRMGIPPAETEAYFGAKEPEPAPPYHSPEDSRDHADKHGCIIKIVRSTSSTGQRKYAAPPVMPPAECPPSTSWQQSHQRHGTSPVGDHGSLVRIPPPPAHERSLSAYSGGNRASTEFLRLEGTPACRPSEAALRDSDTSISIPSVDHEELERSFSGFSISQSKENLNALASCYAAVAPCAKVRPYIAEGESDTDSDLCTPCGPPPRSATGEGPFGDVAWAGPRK
KCNQ2 enhance baseline: recorded beside KCNQ2 enhance, whose call it bears; B-score; compound at 10 µM; measured here: initial fluorescence intensity artifact check;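 brightness before thallium and not channel activity; 0 = typical well and far values either way flag optical interference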
* = called active by the depositor.

SMILES | KCNQ2 enhance | KCNQ2 enhance baseline
C=CCNC(=O)c1ccc2c3n(nc2c1)-c1ccc(Cl)cc1CO3 | 0.5 | -0.35
COc1cccc(OCC(=O)NNC(=O)C(=O)N2CCCC2)c1 | 0.07 | 0.01
CN(CC(=O)Nc1ccc(N2CCOCC2)cc1)C(=O)c1cccc(Cl)c1Cl | 1.7 | -1
COc1ccc(CCNC(=O)c2cc(=O)c3cc(C)ccc3o2)cc1OC | 2.5 | 0.56
O=C(CSc1nncn1-c1ccccc1)Nc1cccc(S(=O)(=O)N2CCCCC2)c1 | 2.5 | 0.01
CN1CC(=O)N(CC(=O)N2CCC(Cc3ccccc3)CC2)C1=O | 0.15 | -0.1
CC(C)Cc1oc(C(=O)O)cc1CN | 0.37 | 0.09
CCCC1=NN(C(=O)Cc2ccc([N+](=O)[O-])cc2)C(O)(C(F)(F)F)C1 (stereo not given) | 0.06 | 0.15
CCC(=O)Nc1cccc(SC)c1 | 1.4 | -0.39
COc1ccc(Nc2ccc(Cl)nn2)cc1 | 0.66 | 1.8
CCOC(=O)C1CCCN(C(=O)c2cc(COc3ccc(C)nc3)on2)C1 (stereo not given) | 1.3 | 3.6
CC(C)OC(=O)Nc1ccc(-c2ccc(NC(=O)OC(C)C)cc2Cl)c(Cl)c1 | 0.2 | 1.1
O=C(CSc1ccc2nnc(-c3ccccn3)n2n1)Nc1ccc2c(c1)OCCO2 | 1.6 | -0.1
COCCCNC(=O)/C=C/c1ccc(Cl)cc1Cl | 0.45 | 0.74
COCCn1c(C)cc(C(=O)CSc2nc3ccccc3o2)c1C | 0.15 | 2.3
Cc1cc(/C=C2/NC(=O)NC2=O)c(C)n1-c1ccncc1 | 0.58 | -3
CCOC(=O)CSc1nnc(CNC(=O)c2ccc(OC)cc2)n1C1CCCCC1 | 0.05 | -0.53
Fc1cccc(-n2c(-c3ccco3)nc3nc4ccccc4nc32)c1 | 1.2 | -1.6
O=C(COC(=O)c1ccc(N2CCCC2=O)cc1)c1ccccc1 | 0.58 | 1.2
O=C(Nc1ccccc1C(=O)NCC1CCCO1)c1ccc(Cl)cc1Cl (stereo not given) | 1 | -1.5
Cc1cccc(Cn2nnc3ccccc32)c1O | 1.1 | 0.46
CC(Oc1ncnc2ccccc12)C(=O)Nc1cccc(S(=O)(=O)N2CCOCC2)c1 (stereo not given) | 1.3 | -0.99
CCc1nc2nc(C)c(NS(=O)(=O)c3ccc(C)c(C)c3)c(=O)n2[nH]1 | 0.17 | 1.1
CC1CCN(S(=O)(=O)c2ccc3c(c2)N(C)C(=O)CC(=O)N3C)CC1 | 1.2 | 1.2
O=S(=O)(NCCN1CCOCC1)c1ccc(Cl)c(Cl)c1 | 0.63 | 2
Following part:
SMILES | KCNQ2 enhance | KCNQ2 enhance baseline
COc1cc(CN2CCN(Cc3c[nH]c4ccccc34)CC2CCO)cc(OC)c1 (stereo not given) | 0.11 | -0.61
C=CCSc1nc2sc3c(c2c(=O)[nH]1)CC(C)(CC)OC3 (stereo not given) | 1.4 | 1.3
COc1ccccc1N1CCN(CC(=O)c2c(C)[nH]c3ccccc23)CC1 | 1.1 | -1.1
CC1(C)C(=O)OC(c2cccs2)C(C)(C)C1=O (stereo not given) | 0.99 | 0.56
C#CCOCCOCCOCCNc1nc(N2CCN(C(=O)[C@H]([C@@H](C)O)n3cc(CCCCN)nn3)CC2)nc(N2CCN(C(=O)[C@H]([C@@H](C)CC)n3cc(CCCN=C(N)N)nn3)CC2)n1 | 1.4 | 0.23
Cc1cccc(NC(=O)c2ccccc2NC(=O)Cc2ccccc2)c1C | 0.63 | 0.17
O=C(Cc1cccc(Cl)c1)Nc1ccc(Br)cc1 | 1.4 | 0.04
CCOC(=O)CN1CC23C=CC(O2)C(C(=O)NCc2cccs2)C3C1=O (stereo not given) | 0.08 | -0.32
CCN(CC)CCNc1cc(C)nc2c1C(=O)C(=O)C=C2N1CCCCC1 | 1.5 | -0.94
COCCNC(=O)c1ccc(N2CC3CC(C2)c2cccc(=O)n2C3)c(NC(=O)c2ccc(Br)o2)c1 (stereo not given) | 0.76 | -0.11
Cc1cccc(OCC(=O)Nc2ccncc2)c1 | 1.8 | 0.14
COC(=O)c1c(NC(=O)Cc2cccs2)sc(C(=O)NC2CCCCC2)c1C | 0.17 | 0.22
O=C(C1CCN(S(=O)(=O)c2cccs2)CC1)N1CCCCC1 | 0.66 | -0.08
O=C(/C=C/c1cccs1)N1CCOCC1 | 1.6 | 2.2
COc1cc([N+](=O)[O-])ccc1NC(=O)CCS(=O)(=O)c1ccc2c(c1)n(C)c(=O)c(=O)n2C | 1.7 | 0.57
CCN(CC)C(=O)c1sc(NC(=O)c2ccc3c(c2)OCO3)c(C(N)=O)c1C | 0.29 | -2.3
Cc1ccnc(SCc2cc(=O)c(OC(=O)c3ccc(S(=O)(=O)N4CCCC4)cc3)co2)n1 | 0.15 | 1.8
Cc1cccc(C)c1NC(=O)COC(=O)C1CC(=O)N(Cc2ccccc2)C1 (stereo not given) | 1.7 | -0.01
CCOC(=O)C1C(=O)NC(N2CCCCC2)=NC1C(C)C (stereo not given) | 1.1 | -1.9
Fc1ccc(NC(=S)N2CCN(c3ncccn3)CC2)cc1 | 0.63 | 2.5
COc1cc(N)c(Cl)cc1C(=O)OC(C)C(=O)Nc1cccc(S(=O)(=O)N2CCOCC2)c1 (stereo not given) | 1.6 | -0.51
O=C(c1ccco1)N1CCC(c2nc(-c3ccc(F)cc3)no2)CC1 | 0.27 | 0.36
COc1ccc2nc(NC(=O)CN3C(=O)NC4(CCCCC4)C3=O)sc2c1 | 1.1 | 0.88
CNC(=O)c1cc2cccc(OC)c2oc1=O | 0.47 | 0.53
CNC(=O)c1cc2cc(OC)ccc2oc1=N | 1.1 | -0.73
Additional structures
SMILES | KCNQ2 enhance | KCNQ2 enhance baseline
COC(=O)c1n[nH]n(-c2ccc(F)c(Cl)c2)c1=O | 1.9 | -0.16
CC(C)(C)c1cc(NC(=O)CSc2nncs2)n(-c2ccccc2)n1 | 0.06 | -0.95
O=C(COc1ccc(Br)cc1)N1CCN(c2ccc([N+](=O)[O-])c(N3CCCCC3)c2)CC1 | 0.47 | -0.76
CCC(CO)NS(=O)(=O)c1cc(-c2nn(C)c(=O)c3ccccc23)ccc1C (stereo not given) | 0.01 | 0.07
COC(=O)c1cn(NC(=O)C2COc3ccccc3O2)c(=O)c2ccccc12 (stereo not given) | 2.2 | -0.5
CCCC(=O)NC(=S)Nc1ccc(N2CCOCC2)c(Cl)c1 | 0.59 | -0.26
Cc1ccc(S(=O)(=O)N(C)C)cc1NC(=O)c1ccc(OC(F)(F)F)cc1 | 0.04 | 0.8
COc1ccc(C(=O)NCCS(=O)(=O)N2CCN(Cc3ccccc3)CC2)cc1 | 0.43 | -2.6
O=C(O)CN1C(=O)CC(Cc2ccc(Cl)cc2)C1=O (stereo not given) | 0.02 | -0.55
Cc1cccc(NC(=O)CSc2nnc(-c3ccco3)c(-c3ccco3)n2)c1C | 0.13 | 2.3
COc1cccc(-c2nc(Oc3cc(C)cc(C)c3)c3ccccc3n2)c1O | 0.18 | -0.65
O=C(CSc1nc2ccccc2[nH]1)c1ccc2c(c1)OCO2 | 0.69 | -0.75
N#CC1=C(N)Oc2n[nH]c(-c3ccc(F)cc3)c2C1c1ccncc1 (stereo not given) | 1.5 | -0.38
CCCCOc1ccc(/C=N/NC(=O)c2nnn(-c3nonc3N)c2CN2CCCCCC2)cc1 | 1 | 1.9
CC(=O)c1ccc(S(=O)(=O)N2CCC(NC(=O)Nc3cccc(F)c3)CC2)cc1 | 1.7 | -0.16
CC(=O)N1CCC(C(=O)Nc2cc(C)cc(C)c2)CC1 | 0.84 | 0.41
COc1ccc2cc3cc(C(=O)NCc4ccc5c(c4)OCO5)oc3nc2c1 | 0.97 | 2.3
O=C1NCCN1CCNS(=O)(=O)c1ccccc1[N+](=O)[O-] | 0.7 | 1.5
CC(Sc1nc(NCc2ccccc2)nc(N2CCOCC2)n1)C(=O)Nc1ccccc1 (stereo not given) | 0.05 | -2.1
CCCc1nnc(NC(=O)CCC(=O)N2CCN(CCOc3ccc(C)cc3)CC2)s1 | 2.7 | -1.2
COc1cc(NC(=O)C2CC(=O)N(CCc3ccc(F)cc3)C2)cc(OC)c1OC (stereo not given) | 0.55 | -2.3
Cc1cc(C(=O)COC(=O)C2=NNC(=O)CC2)c(C)n1-c1ccc(OC(F)F)cc1 | 1.4 | -1.1
FC(F)(F)c1ccc(C2[C@H]3CN(Cc4ccc(-c5ccccc5)cc4)[C@H](c4ccccc4)C34CC2(c2cccnc2)C4)cc1 (stereo not given in full) | 1 | -0.12
O=C(c1cc2cc(Cl)ccc2oc1=O)N1CCCC1 | 0.03 | -1.1
CC(=O)NC(CCS(C)(=O)=O)C(=O)Nc1c(F)cccc1F (stereo not given) | 0.25 | -0.68

Entries of single compounds, looked up by structure. Screens in order: KCNQ2 enhance	KCNQ2 enhance baseline
CC(=O)NC(CCS(C)(=O)=O)C(=O)Nc1c(F)cccc1F (stereo not given) in the list: 0.25	-0.68
O=C1NCCN1CCNS(=O)(=O)c1ccccc1[N+](=O)[O-] in the list: 0.7	1.5
COC(=O)c1cn(NC(=O)C2COc3ccccc3O2)c(=O)c2ccccc12 (stereo not given) in the list: 2.2	-0.5
FC(F)(F)c1ccc(C2[C@H]3CN(Cc4ccc(-c5ccccc5)cc4)[C@H](c4ccccc4)C34CC2(c2cccnc2)C4)cc1 (stereo not given in full) in the list: 1	-0.12
COc1cc(NC(=O)C2CC(=O)N(CCc3ccc(F)cc3)C2)cc(OC)c1OC (stereo not given) in the list: 0.55	-2.3

Later entries.
SMILES | KCNQ2 enhance | KCNQ2 enhance baseline
CCn1nc(C)c([N+](=O)[O-])c1C(=O)NNC(=O)c1ccc(Cl)cc1 | 1 | 1.8
O=C(Cc1ccsc1)Nc1ccc(Cl)cc1Cl | 1.3 | -1.6
CCn1c(SCC(=O)Nc2ccc3c(c2)n(C)c(=O)n3C)nnc1-c1ccncc1 | 1.3 | 0.12
Cc1c(-c2ccccc2)nc(-c2ccccc2)[nH]c1=O | 0.01 | 0.44
CC(C)(C)C(=O)COC(=O)c1ccc2c(c1)C(=O)N(Cc1ccco1)C2=O | 1.5 | 0.97
COc1ccc(-n2cc(CN(C)C3CCOCC3)c(-c3cccc(F)c3)n2)cc1 | 0.66 | 0.4
Cc1cccc(OCCOC(=O)CN2C(=O)NC3(CCCC3)C2=O)c1 | 0.07 | -0.23
O=C1Nc2ccccc2C(O)(C(=O)NCc2ccco2)N1c1ccc(Cl)c(Cl)c1 (stereo not given) | 0.23 | 0.06
CC(C)c1ccc(CNC(=O)C2CCCN2S(=O)(=O)c2ccccc2)cc1 (stereo not given) | 2 | 0.09
N#CN=C(c1ccccc1)c1ccccc1 | 0.84 | 0.69
CCCc1c(C)c2ccccc2[nH]c1=O | 0.9 | -0.14
Nn1c(C2CCC2)nc2cc(Cl)ccc2c1=O | 1.8 | -0.09
Cc1ccc(C(C)NC(=O)c2c(C)noc2C)cc1C (stereo not given) | 0.29 | -0.23
O=C(Cc1cccs1)Nc1cccc(-c2nnc(-c3ccco3)o2)c1 | 0.09 | -1.5
COc1ccc(C(=O)Nn2c(C)ccc2C)cc1OC | 0.27 | -0.02
CCn1c(Cc2ccccc2)nnc1SCC(=O)c1cccc([N+](=O)[O-])c1 | 0.74 | 0
O=C(CSc1nnc(NC(=O)c2ccccc2)s1)NCc1ccco1 | 1.1 | 1.1
COCCn1cnc2c1c(=O)n(CC(=O)NCC(F)(F)F)c(=O)n2Cc1ccccc1 | 0.76 | 0.44
COC(=O)C(C)(C(=O)OC)c1ccccc1[N+](=O)[O-] | 0.89 | -2.2
Cc1c(Cl)c([N+](=O)[O-])nn1CCCC(=O)Nc1sc2c(c1C(N)=O)CCC(C)C2 (stereo not given) | 1.1 | 0.88
CCCCN1C(=O)C(=O)NC[C@@H]1C(C)O (stereo not given in full) | 0.67 | -2.1
Cc1ccc(-n2ncc3c(=O)n(CC#N)cnc32)cc1 | 1.1 | -1.1
Cc1cc(Cl)cc(Cl)c1CNc1c([N+](=O)[O-])c(=O)oc2ccccc12 | 0.21 | 0.3
COC(=O)c1sc(S(=O)(=O)N2CCCCC2C(=O)O)c(C(=O)OC)c1C (stereo not given) | 0.13 | 1.4
CCOc1ccc(CNc2nc3ccccc3n2C)cc1 | 0.01 | -0.51

Of the compounds above, these have a COOH group.
SMILES | KCNQ2 enhance | KCNQ2 enhance baseline
CC(C)Cc1oc(C(=O)O)cc1CN | 0.37 | 0.09
O=C(O)CN1C(=O)CC(Cc2ccc(Cl)cc2)C1=O (stereo not given) | 0.02 | -0.55
COC(=O)c1sc(S(=O)(=O)N2CCCCC2C(=O)O)c(C(=O)OC)c1C (stereo not given) | 0.13 | 1.4

Continuation.
SMILES | KCNQ2 enhance | KCNQ2 enhance baseline
Cc1c(N2C(=O)CSC2c2ccc(F)cc2)c(=O)n(-c2ccccc2)n1C (stereo not given) | 0.65 | 0.26
O=C(O)/C=C/S(=O)(=O)c1ccc2ccccc2c1 | 0.95 | 0.04
COc1ccc(CCNC(=O)C2CCCCC2C(=O)O)cc1OC (stereo not given) | 0.05 | 2.2
COc1ccc(/C=N/OCc2ccccc2C#N)c(OC)c1 | 1.7 | -1.4
CCn1c(C)[n+](CC)c2ccc(C(=O)N(C)c3ccccc3)cc21 | 0.55 | -0.77
CCn1c(CC(=O)Nc2ccccc2)nnc1SCC(=O)NC1CCCC1 | 0.6 | -0.3
COc1cccc2cc(C(=O)Nc3ccc(F)cc3)c(=Nc3ccc(C(=O)O)cc3)oc12 | 0.05 | 0.27

3 entries already listed, arranged by the value under KCNQ2 enhance, highest first.
SMILES | KCNQ2 enhance | KCNQ2 enhance baseline
COc1ccc(/C=N/OCc2ccccc2C#N)c(OC)c1 | 1.7 | -1.4
CCn1c(CC(=O)Nc2ccccc2)nnc1SCC(=O)NC1CCCC1 | 0.6 | -0.3
COc1cccc2cc(C(=O)Nc3ccc(F)cc3)c(=Nc3ccc(C(=O)O)cc3)oc12 | 0.05 | 0.27

Screening data as filed in PubChem.

Only part of the results is shown, so the mix of outcomes need not match the whole.
